Six1-Eya2 blk = inhibitors of human Six1/Eya2 interaction | activity change, % (test concentration not listed) | AID 651725 | Q15475+O00167 | AlphaScreen GST-Six1/His-Eya2 binding, biochemical; hits give low values; control for the full effect not named in the record | 360,000 compounds, 0.56% hits; in the data active = activity change below about -65%; inconclusive = about -30% to -65%; inactive = above about -30%; note: % is set by controls: 0 for no effect and ±100 for the full control effect
Target sequence (O00167 whole entry, looked up): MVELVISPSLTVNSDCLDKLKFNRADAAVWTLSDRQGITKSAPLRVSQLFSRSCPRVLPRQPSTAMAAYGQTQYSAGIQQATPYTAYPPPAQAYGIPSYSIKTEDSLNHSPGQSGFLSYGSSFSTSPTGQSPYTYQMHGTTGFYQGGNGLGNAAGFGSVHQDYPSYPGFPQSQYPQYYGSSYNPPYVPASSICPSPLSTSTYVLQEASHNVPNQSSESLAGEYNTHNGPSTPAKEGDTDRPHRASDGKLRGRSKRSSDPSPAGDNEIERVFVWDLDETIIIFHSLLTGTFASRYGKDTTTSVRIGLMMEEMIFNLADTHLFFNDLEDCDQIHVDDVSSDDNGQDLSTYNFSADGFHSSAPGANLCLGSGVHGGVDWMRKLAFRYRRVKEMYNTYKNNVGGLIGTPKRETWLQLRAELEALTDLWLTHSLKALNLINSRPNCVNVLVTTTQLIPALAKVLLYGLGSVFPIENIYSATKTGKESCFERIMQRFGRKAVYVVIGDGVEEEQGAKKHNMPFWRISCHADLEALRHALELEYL
Target sequence (Q15475 whole entry, looked up): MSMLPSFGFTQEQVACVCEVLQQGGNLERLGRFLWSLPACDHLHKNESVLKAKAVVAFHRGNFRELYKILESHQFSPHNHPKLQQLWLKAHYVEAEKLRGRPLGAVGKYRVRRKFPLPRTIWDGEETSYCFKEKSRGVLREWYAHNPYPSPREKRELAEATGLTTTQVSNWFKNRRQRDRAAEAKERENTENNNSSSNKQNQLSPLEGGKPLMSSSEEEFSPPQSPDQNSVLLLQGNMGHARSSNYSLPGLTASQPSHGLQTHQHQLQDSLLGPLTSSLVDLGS
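AlphaScreen luminescence read after one hour at 37 °C in darkness. Pin-transferred compounds met GST-Six1 and His-Eya2 protein (5X stock 250 nM/500 nM) plus glutathione donor and Ni-chelate acceptor beads (5X, 50 ug/mL).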
PINK1 modulator = changes PINK1 expression; PINK1 immunofluorescence, high-content cytometry, 24 h; Potency, µM (doses to about 76.6 µM), without a hit: at the top dose activation (PINK1 increase), actives largely listed as activators; 410,000 compounds, 0.2% hits; active = well fitted activation curve with a large enough effect; inconclusive = small, poorly fitted or top-dose-only effect; inactive = flat fitted curve, though single readings scatter; cell line not stated here;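 note: potency is the fitted concentration of half-maximal effect; % of control where 0% means no effect; nearly all actives have a fitted effect of over 65% in size; a mitochondrial uncoupler was the plate control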
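Decision-based qHTS: stable cells, 24 h exposure to five compound concentrations, CCCP as control. Fixed cells stained for PINK1 plus nuclear, mitochondrial and cell markers, cytometer read.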
TRPML1 inh = blocks the human TRPML1 channel; Q9GZU1; TRPML1-inducible cells, Ca2+ dye fluorescence, FDSS; hits give low values; inhibition of EC80 agonist-evoked calcium signal; activity change, negative = inhibition, % (no concentration beside the values); 390,000 compounds, 0.02% hits; AID 624415; in the data active means activity change below about -50%; inconclusive means about -30% to -50%; inactive means above about -30%;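 note: stimulus is agonist 54-4 at its EC80 concentration; % is set by controls: 0 for no effect and ±100 for the full control effect; compound concentration not given in the record; the text of the record puts the active cut at -80%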
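TRPML1-DL cells, Tet-induced overnight (~16 h, 37 °C) at 1,500 cells/well, were loaded with Ca8 no-wash dye plus quencher for 45-90 min at room temperature. Compounds were pinned during FDSS kinetic reading; agonist 54-4 at EC80 (4 uM final) then added.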
TRPML1 agonist = activates the human TRPML1 channel | TRPML1-expressing cells, Ca2+ dye fluorescence, FDSS; host cell line not named in the record; reference of the full effect not given here | activation, % (test concentration not listed) | 410,000 compounds, 0.12% hits | AID 624414; in the data active = activation above about 50%; inconclusive = about 30% to 50%; inactive = below about 30%; note: 0% is about no effect; the text of the record puts the active cut at 80%
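Tet-induced TRPML1-DL cells, 1,500 per well, cultured overnight, were loaded with a no-wash Ca2+ dye for 45–90 min. Calcium fluorescence was recorded on the FDSS for 110 s after compound addition, before the EC80 agonist (4 uM 54-4) was added.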
CtBP-E1A blk = blocks the CtBP interaction with E1A. AlphaScreen GST-E1A/His-CtBP binding, 1536-well; hits give low values; control for the full effect not named in the record. activity change, % (no concentration beside the values). 340,000 compounds, 0.49% hits. AID 651724; in the data active means activity change below about -65%; inconclusive means about -30% to -65%; inactive means above about -30%; note: % is set by controls: 0 for no effect and ±100 for the full control effect
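Homogeneous bead-based format: GST-tagged E1A captured on glutathione donor beads, His-tagged CtBP on nickel acceptor beads; compounds precede bead addition by 2 h at 37 °C.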
D2 ag = human D2 receptor agonism in beta-arrestin assay; P14416; DiscoveRx PathHunter D2 beta-arrestin, luminescence, 90 min; 100% = 57 uM dopamine signal; activation, % (concentration not given with the values); 360,000 compounds, 0.084% hits; AID 624465; in the data active = activation above about 40%; inconclusive = about 15% to 40%; inactive = below about 15%; note: the text of the record calls up to 30% inactive
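DiscoveRx PathHunter D2 beta-arrestin cells (2,100/well) attached overnight, then compound-stimulated 90 min at 37 C in HBSS/10 mM HEPES/0.1% Tween-20 buffer; beta-galactosidase complementation read by luminescence after 1 h at ambient temperature. Dopamine 57 uM final (EC100) as control.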
* = called active by the depositor; ? = inconclusive; nt = not tested or not shown; & = joins results of further samples; [ ] = dose if it differs, or a comment. Outcome played no part in choosing rows. About 1% of those tested had a hit in this group.

SMILES | Six1-Eya2 blk | PINK1 modulator | TRPML1 inh | TRPML1 agonist | CtBP-E1A blk | D2 ag
COC(=O)c1c(C)[nH]c(C(=O)CN2C(=O)NC3(CCOc4ccccc43)C2=O)c1C (stereo unspecified) | -2 | -0.1% | 24 | 0.0 | nt | 1.9
O=C(CN1C(=O)NC2(CCCC2)C1=O)c1ccc(Cl)s1 | -5 | 0.5% | 18 | 0.2 | 5 | 1.2
O=C(COc1ccccc1)Nc1nnc(-c2ccc3c(c2)CCCC3)o1 | 1 | 0.2% | -8 | -0.8 | -18 | 0.8
Cn1cc(C(=O)N2CCN(c3ccccc3)CC2)c(=O)c2cc(S(=O)(=O)N3CCCC3)ccc21 | -6 | 1.6%&0.3% | 7&6 | 1.2&1.0 | nt | 2.2
C=CCNc1nc2c(c(=O)n(C)c(=O)n2C)n1CCCCCC | -1 | -1.0% | 2 | -0.4 | -1 | 1.8
CCc1cccc(CC)c1NC(=O)C1CCN(C(=O)c2ccco2)CC1 | -1 | 0.7% | -3 | -1.4 | 9 | -3.3
Cc1ccc(SSc2cc(C)ccc2N)c(N)c1 | ? | -0.3% | -2 | 1.6 | ? | -12
O=C(NCc1ccccn1)c1cc(-n2cnnc2)ccc1Cl | 0 | -1.3% | 21 | -0.8 | 5 | -5.4
Cc1ccc(Oc2cc(NC(=O)CCCn3nc([N+](=O)[O-])c(Cl)c3C)cc([N+](=O)[O-])c2)cc1 | 4 | 15% | 7 | -0.5 | 6 | -5.0
c1ccc(OCc2nnc3n2CCCCC3)cc1 | 9 | 0.8% | -6 | -0.2 | 3 | -4.5
O=C(NC1CCCCC1)C(c1ccccc1F)N(Cc1ccco1)C(=O)Cn1nnc2ccccc21 (stereo unspecified) | -10 | 6.3% | 32 | -0.6 | -3 | -5.5
CSCCC(NC(=O)COc1ccccc1)C(=O)N(C)Cc1cccc(F)c1 (stereo unspecified) | -5 | 0.0% | 2 | 4.5 | -3 | 5.4
O=C(NCc1ccccc1Cl)c1ccc2nc([C@@H]3O[C@H](CO)[C@@H](O)[C@H]3O)[nH]c2c1 | 16 | 1.0% | nt | -0.4 | 28 | 1.3
O=C(Cc1cccs1)Nc1nc(-c2ccccc2)cs1 | 0 | 2.9%[38.3 µM] | 14 | -0.2 | 3 | -2.1
c1ccc(Cn2c(-c3ccco3)nc3nc4ccccc4nc32)cc1 | -12 | 1.4% | -26 | 0.5 | 12 | -2.6
CN(C)c1ccc(N=Nc2ccccc2C(=O)OCC(=O)N(C)C2CCCCC2)cc1 | -23 | -0.7% | 2 | -0.3 | -19 | -1.3
CS(=O)(=O)Nc1ccc2c(c1)ncn2CCc1ccccc1 | -1 | -3.4% | 14 | 0.3 | -3 | 0.5
Cc1ccc(S(=O)(=O)c2nc(S(=O)(=O)c3ccc(C)cc3)c(N3CCN(CCO)CC3)s2)cc1 | 2 | -1.8% | 11 | 0.0 | -2 | -2.6
COC(=O)c1ccc(S(=O)(=O)N2CCN(C)CC2)n1C | 3 | 1.2% | 11 | 5.0 | 6 | -1.0
Nc1nc(-c2ccc3ccccc3c2)cs1 | -7 | 0.6% | 11 | 0.7 | -4 | -0.2
CCP(=O)(c1ccccc1)C(C)(C)O (stereo unspecified) | 2 | -1.0% | 2 | 0.7 | 6 | 1.7
Cc1ccc(CNC(=O)C2COc3ccccc3O2)cc1 (stereo unspecified) | 6 | 0.9% | 21 | 1.7 | nt | -4.5
C[n+]1ccc(/C=C/c2c[nH]c3ccccc23)cc1 | 1 | ? | 25 | 4.3 | 2 | -3.9
CC(OC(=O)c1c[nH]c2ccccc12)C(=O)N1CCCC1 (stereo unspecified) | 2 | 0.4% | -2 | -0.4 | nt | -4.1
CCOc1ccc(OCCSc2ccc(S(=O)(=O)N3CCN(C)CC3)cn2)cc1 | -26 | 0.9% | 11 | 3.0 | nt | -1.7
Cc1c(CCC(C)C)c(=O)n2c([nH]c3ccccc32)c1C#N | 3 | 1.0% | 0 | -1.3 | 21 | -2.2
CC(C)c1ccc(S(=O)(=O)N2CCN(C(=O)Cc3ccsc3)CC2)cc1 | 22 | 2.7% | -5 | -0.4 | 6 | -4.3
CCOc1cc(/C=C2/NC(=O)N(CC(=O)OC)C2=O)ccc1O | -2 | -0.4% | -5 | -0.5 | -2 | 11
Cc1ccc(C(=O)Nc2ccc3c(c2)OCO3)cc1S(=O)(=O)N1CCCCC1 | ? | 0.2% | 27 | 2.3 | -67* | 1.6
C[C@H](NC(=O)c1ncn2c1C(=O)NC[C@H]2C)C(=O)OC(C)(C)C | -26 | 0.6% | nt | nt | -26 | -3.7
CC(Oc1ccc2c(=O)c(-c3ccc(Cl)cc3)c(C(F)(F)F)oc2c1)C(=O)O (stereo unspecified) | 8 | 0.0% | -8 | -0.4 | nt | -7.3
COc1ccc(C=NNC(=O)NN=Cc2ccc(OC)c(OC)c2)cc1OC | -7 | 0.6% | -3 | -0.9 | -8 | 0.9
C/C(N)=C(/C#N)C(=O)COC(=O)CCCNC(=O)c1ccc(Cl)cc1 | 5 | -1.0% | 5 | 1.3 | 0 | 5.0
O=C1c2ccccc2C(Nc2ccc3c(c2)OCO3)N1Cc1ccco1 (stereo unspecified) | ? | 0.1% | -9 | -0.1 | -4 | 0.8
COc1cc(S(=O)(=O)N2CCOCC2)ccc1NC(=O)CSc1n[nH]c(=O)[nH]c1=O | -1 | -1.5% | -11 | 1.2 | -10 | 6.6
O=C(CSc1ccc(Cl)cc1)Nc1ccc(N2CCN(C(=O)c3ccco3)CC2)cc1 | -14 | -0.5% | -15 | -0.9 | -8 | 2.1
S=C(NCCC(c1ccccc1)c1ccccc1)Nc1ccc(Cl)cc1 | -1 | 20%[38.3 µM] | -4 | 1.0 | 8 | -0.1
Cn1c(O)c(/C=N/Nc2ccccc2)c(=O)n(C)c1=O | 3 | 0.2% | -22 | 0.2 | -7 | 5.0
O=CN1CCN(C(=O)c2ccc3c(c2)OCO3)CC1 | 2 | 6.1% | -1 | -0.3 | -1 | -2.7
COc1ccc(CN2C(=O)C(CC(=O)NCCCCc3ccccc3)CC(C(=O)N(C)C)=C2C)cc1 (stereo unspecified) | -1 | 1.7% | 1 | -0.9 | 4 | -8.4
CCn1c(SCC(=O)NC2CCCCC2)nnc1-c1cc2cccc(OC)c2o1 | -2 | 0.6% | 18 | 0.5 | -10 | -4.1
COc1cccc(/C=C2\SC(=S)N(CCCC(=O)N3CCCCC3)C2=O)c1 | -1 | 1.4% | 15 | 1.3 | -9 | 9.5
O=C1CCCN1CCCNS(=O)(=O)c1cccs1 | 5 | -1.4% | 4 | -0.5 | 4 | 7.8
CC(C)CCNC(=O)NC(=O)CSc1nnc(-c2ccccc2Br)o1 | 2 | 6.8%[38.3 µM] | 9 | -0.1 | 13 | -0.4
CCN(C(=O)Cc1c(C(=O)O)n(CC)c2ccccc12)c1cccc(C(F)(F)F)c1 | 7 | 0.1% | 22 | 0.1 | nt | 1.0
CC1CCN(C(=O)c2ccc(S(=O)(=O)Cc3cc(F)ccc3F)c([N+](=O)[O-])c2)CC1 | -22 | 2.5% | 24 | 0.1 | -13 | -0.3
CCC(NC(=O)c1ccc2nc(Cc3ccc(OC)cc3)oc2c1)c1ccncc1 (stereo unspecified) | -2 | -1.9% | -19 | 1.3 | nt | 6.9
CCC(=O)N1CCc2cc(S(=O)(=O)NC(C(=O)NC(C)c3ccccc3)C(C)C)ccc21 (stereo unspecified) | 6 | 15% | -2 | -0.5 | 6 | 0.0
CCOC(=O)C1(Cc2cccc(OC)c2)CCN(C2CCOCC2)CC1 | 3 | -1.1% | 18 | 1.9 | 6 | 5.4
CC(C)OC(=O)c1cccnc1N1CCN(c2ccc(F)cc2)CC1 | -2 | 2.8% | -12 | 0.4 | -1 | -3.3
Cn1c(=O)n(CC(=O)N2CCN(c3nnc(-c4ccccc4)c4ccccc34)CC2)c2ccccc21 | 0 | -2.3%[38.3 µM] | -4 | 1.3 | -11 | 1.3
Nc1nnc(SCC(=O)Nc2cc(C(F)(F)F)ccc2N2CCOCC2)s1 | 14 | 1.9%[38.3 µM] | 9 | 2.0 | 4 | -1.6
O=C(OCc1nnc(-c2ccccc2)o1)C1CC(=O)N(CCc2ccccc2)C1 (stereo unspecified) | -4 | 0.2% | 12 | 2.6 | 0 | 2.0
COc1cccc(Nc2nnc(SCn3nnc4ccccc4c3=O)s2)c1 | -6 | 0.3%[38.3 µM] | 11 | -0.6 | 6 | 1.7
COc1ccc(NC(=O)Nc2cccs2)cc1OC | -7 | nt | 14 | 0.2 | 0 | 1.9
CC(CCc1ccccc1)NC(=O)C(=O)N1CCOCC1 (stereo unspecified) | 6 | 0.4% | -12 | -0.5 | 5 | -1.7
CC(C)Cc1nnc(NC(=O)c2cc(-c3ccncc3)nc3ccccc23)s1 | 16 | -0.5% | -7 | 0.7 | -9 | 3.2
CCCNC(=O)C1(C)CCCN(C(=O)COCc2ccccc2)C1 (stereo unspecified) | 4 | 0.8% | -5 | -0.2 | 4 | -4.4
COCCNC(=O)c1onc(CSc2cccc(OC)c2)c1C(=O)NCCOC | 0 | 1.2% | -7 | -0.4 | 0 | -5.2
O=C(c1cc2c(ccc3ccccc32)oc1=O)N1CCCC1 | 6 | 1.8% | 23 | 0.0 | 0 | -0.2

In another format: entries from further up
Order of values – Six1-Eya2 blk, PINK1 modulator, TRPML1 inh, TRPML1 agonist, CtBP-E1A blk, D2 ag
> CC(C)Cc1nnc(NC(=O)c2cc(-c3ccncc3)nc3ccccc23)s1
→ 16, -0.5%, -7, 0.7, -9, 3.2
> CCCNC(=O)C1(C)CCCN(C(=O)COCc2ccccc2)C1 (stereo unspecified)
→ 4, 0.8%, -5, -0.2, 4, -4.4
> COCCNC(=O)c1onc(CSc2cccc(OC)c2)c1C(=O)NCCOC
→ 0, 1.2%, -7, -0.4, 0, -5.2

(list continues)
SMILES | Six1-Eya2 blk | PINK1 modulator | TRPML1 inh | TRPML1 agonist | CtBP-E1A blk | D2 ag
N#Cc1ccc(OCC(=O)n2cc(C(=O)c3cc(Cl)cc(Cl)c3O)cn2)cc1 | 1 | 0.4% | -7 | 0.3 | nt | -3.5
CCc1ccc(NC(=O)CNC(=O)Cn2ccc3ccccc3c2=O)cc1 | 1 | 9.2% | -9 | -0.2 | 8 | -1.7
Cc1ccc2[nH]c(C(F)(F)F)cc(=O)c2c1 | 3 | 2.4% | 2 | -0.2 | 8 | -3.1
Cc1nc2cc3ccccc3cc2n1C | -2 | 0.3% | -15 | 0.5 | -2 | -2.6
O=C(CCC(=O)N/N=C/c1ccc(Br)s1)NCc1ccccc1 | 1 | 8.0% | 7 | 0.4 | -19 | -0.5

A second format for part of the listing above:
smiles,Six1-Eya2 blk,PINK1 modulator,TRPML1 inh,TRPML1 agonist,CtBP-E1A blk,D2 ag
N#Cc1ccc(OCC(=O)n2cc(C(=O)c3cc(Cl)cc(Cl)c3O)cn2)cc1,1,0.4%,-7,0.3,nt,-3.5
CCc1ccc(NC(=O)CNC(=O)Cn2ccc3ccccc3c2=O)cc1,1,9.2%,-9,-0.2,8,-1.7

Screens as filed in PubChem.
